# Screening results: PubChem BioAssay, National Center for Advancing Translational Sciences (NCATS)
# GLA inh pH 4.5: alpha-galactosidase A (human) inhibition, pH 4.5; P06280; 230,000 tested, under 10 active; purified enzyme, 4-MU-alpha-Gal fluorescence, pH 4.5; activity change, negative = inhibition, % at 105 µM; AID 1467; inconclusive = small, poorly fitted or top-dose-only inhibition, or a rising curve; inactive = flat fitted curve, though single readings scatter; no compound was filed as active;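 further: 0% = full activity with enzyme and -100% = basal without enzyme; dose as in the result columns while the protocol names 77 µM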
# Rango release inh: prevents RanGTP from dissociating the Rango-importin beta complex. AID 540253. Biochemical FRET Rango-importin beta, RanGTP-induced dissociation. Potency, µM (titrated, usually from 46.1 µM), inactives show at the highest dose activity change, negative = inhibition. hit rate 0.071% among 340,000; active means falling FRET ratio curve, often poorly fitted, with flat reads before Ran was added; inconclusive means other falling curves, or compound fluorescence or quenching; inactive means flat or rising ratio curve;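 further: potency means the concentration at half of the fitted maximal effect; % of control where 0% means no effect; nearly all actives have a fitted effect of over 45% in size; -100% = wells without RanGTP and RCC1; the record marks most hits as doubtful in a second field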
#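 Rango (0.1 uM)–importin beta (0.25 uM) complex; RanGTP-RCC1 trigger; 45 min RT; CFP/YFP FRET read.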
# Rango complex inh: Rango-importin beta binding inhibition | Q14974 | Potency, µM (titrated, usually from 92.2 µM), for the others: top-dose inhibition of complex formation | Rango CFP/YFP FRET sensor + importin beta, 45 min | hit rate 0.031% among 340,000; active = rising FRET ratio curve, often small or poorly fitted; inconclusive = mostly compound fluorescence or quenching in the first reads; inactive = flat curves in all reads;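 further: potency means the concentration at half of the fitted maximal effect; 0% = DMSO wells and 100% = buffer wells lacking importin beta; nearly all actives have a fitted effect of over 15% in size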
# Target sequence (Q14974 whole entry, looked up): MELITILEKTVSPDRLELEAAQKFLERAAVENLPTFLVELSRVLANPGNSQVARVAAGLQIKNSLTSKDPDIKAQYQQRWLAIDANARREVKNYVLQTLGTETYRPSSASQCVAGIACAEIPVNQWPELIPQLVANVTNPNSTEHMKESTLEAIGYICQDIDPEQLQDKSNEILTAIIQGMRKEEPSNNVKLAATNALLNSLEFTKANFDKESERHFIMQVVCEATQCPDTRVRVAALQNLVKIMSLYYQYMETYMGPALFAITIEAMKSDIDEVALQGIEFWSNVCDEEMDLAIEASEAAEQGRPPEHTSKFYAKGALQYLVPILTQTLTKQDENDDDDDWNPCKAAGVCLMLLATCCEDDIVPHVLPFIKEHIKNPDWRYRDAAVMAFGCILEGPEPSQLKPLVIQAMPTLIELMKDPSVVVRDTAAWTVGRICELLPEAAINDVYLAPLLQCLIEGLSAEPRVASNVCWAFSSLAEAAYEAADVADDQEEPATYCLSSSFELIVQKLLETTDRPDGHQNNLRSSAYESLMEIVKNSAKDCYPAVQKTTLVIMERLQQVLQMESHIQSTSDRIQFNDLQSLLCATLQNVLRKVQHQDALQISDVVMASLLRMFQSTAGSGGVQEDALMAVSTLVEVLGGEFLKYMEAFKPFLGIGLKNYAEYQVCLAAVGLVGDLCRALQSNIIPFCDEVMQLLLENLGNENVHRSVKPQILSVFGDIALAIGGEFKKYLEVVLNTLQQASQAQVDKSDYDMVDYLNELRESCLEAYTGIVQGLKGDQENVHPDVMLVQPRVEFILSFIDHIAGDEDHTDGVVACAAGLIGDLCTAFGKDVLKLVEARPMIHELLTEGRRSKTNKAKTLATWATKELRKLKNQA
#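 FRET biosensor (snurportin 1 IBB flanked by EYFP and cerulean), 50 nM, with compound 5 min, then 0.125 microM importin beta in PBS, 1 mM DTT, 0.02% Tween-20, 0.1% BSA. CFP/YFP ratio read after 45 min at room temperature; pre-read flags interference.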
# miR-21 reporter: miR-21 reporter, rising signal | 340,000 tested, under 10 active | HeLa miR-21 FLuc reporter, luciferase, 48 h | Potency, µM (titrated, usually from 38.3 µM), inactives show top-dose reporter change, positive = more light | AID 2288; active = well fitted rising curve with a large enough effect; inconclusive = small, poorly fitted or top-dose-only effect; inactive = no such curve, though single readings can be large or run the other way;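 further: % of control where 0% means no effect; miR-21 action dims this reporter so a rising signal means less miR-21 action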
#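 HeLa cells endogenously expressing miR-21, stably carrying CMV-driven firefly luciferase with a downstream miR-21 binding site, 2000 cells/well. Titrations up to approximately 40 uM, 48 hours; luciferase luminescence read.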
# Numbers without * were called inactive; ? = inconclusive; / = no result given. The list is partial. The share of hits here may be higher or lower than overall.
SMILES,GLA inh pH 4.5,Rango release inh,Rango complex inh,miR-21 reporter
CC(=O)c1ccc(N2CCN(C(=O)C(=O)c3c(C)[nH]c4ccccc34)CC2)cc1,/,-18%,0.1%,0%
CN(Cc1ccccc1)C(=O)c1ccc2c(c1)OCCO2,0,23%,0.2%,-23%
O=C1CC(c2ccc(O)c(O)c2)Oc2c1ccc(O)c2O (configuration not stated),3,-16%,3.8%,2%
O=C(O)/C=C/C(=O)NNC(=O)c1cccc(Br)c1,3,-8%,-0.3%,-10%
COc1ccc(N2C(=O)c3cccc4cccc(c34)C2=O)nn1,5,-6%,?,-1%
O=C(CNC(=O)c1cccs1)NCCN1CCN(c2ccccc2F)CC1,3,-7%,0.6%,-11%
CC(C1CCN(Cc2nc(C3CC3)no2)CC1)N1CCOCC1 (configuration not stated),9,1%,-1.0%,-1%
Cc1ccc(C(=O)Nc2cccc(C(=O)NC3CCCCC3)c2)cc1,/,2%,-0.3%,/
C=C(C)CN=c1scc(C)n1/N=C/c1ccco1,-6,6%,-0.9%,-22%
CC(=O)c1ccc(OCc2cc(C(=O)N3CCC(Oc4ccccc4C)CC3)no2)cc1,/,6%,0.4%,-36%
O=C(CN(C(=O)CNS(=O)(=O)c1ccccc1)C1CCCC1)NCc1ccco1,-5,-7%,-1.3%,-1%
COc1ccc(-c2cc(C(F)(F)F)c3c(=O)n(-c4ccccc4)[nH]c3n2)cc1,2,1%,-1.3%,1%
COc1ccc(C(OC(=O)c2cccs2)C(=O)NCC2CCCO2)cc1 (configuration not stated),-5,9%,7.8%,-6%
C/C(N)=C(/C#N)C(=O)COC(=O)Cc1coc2cc(C)ccc12,-22,-19%,-2.1%,0%
Cc1ccc2nc(SCC(=O)Nc3cccc(F)c3)nc(=O)n2c1,/,-21%,0.1%,/

# Molecules from the list above with a thiophene ring, fused or not (two):
SMILES,GLA inh pH 4.5,Rango release inh,Rango complex inh,miR-21 reporter
O=C(CNC(=O)c1cccs1)NCCN1CCN(c2ccccc2F)CC1,3,-7%,0.6%,-11%
COc1ccc(C(OC(=O)c2cccs2)C(=O)NCC2CCCO2)cc1 (configuration not stated),-5,9%,7.8%,-6%

# (list continues)
SMILES,GLA inh pH 4.5,Rango release inh,Rango complex inh,miR-21 reporter
Cn1c(SCCN2CCCC2)nnc1C1CCN(S(=O)(=O)c2ccc(F)cc2)CC1,/,3%,-1.7%,-6%
CC(C)CC(C(=O)O)N(Cc1ccccc1)Cc1ccccc1 (configuration not stated),-9,-3%,0.8%,10%
CC(=O)Nc1ccc(C2Nc3cc(C)c(C)cc3NC3=C2C(=O)CC(C)(C)C3)cc1 (configuration not stated),/,0%,2.1%,-44%
Cc1cc2cc(CN(Cc3cccs3)S(=O)(=O)c3ccc4c(c3)OCCO4)c(=O)[nH]c2cc1C,3,-2%,1.0%,-9%
CCCC(c1nnnn1Cc1ccco1)N1CCN(C(=O)c2ccco2)CC1 (configuration not stated),-4,7%,-2.5%,-7%
CC1CCCC(NC(=O)COC(=O)c2cc(S(=O)(=O)N3CCCCC3)ccc2N2CCOCC2)C1C (configuration not stated),-1,-2%,-0.2%,-4%
CCn1c(SCC(=O)Nc2ccc(OC)cc2)nc2c1c(=O)n(C)c(=O)n2C,/,-3%,-0.3%,0%
C=CCCCCCCCCC(=O)NNC1=CC(=O)CC(C)(C)C1,3,2%,1.1%,-4%
COc1ccc(S(=O)(=O)N2CCCC(N(C)CCc3ccccc3)C2)cc1OC (configuration not stated),/,?,-2.6%,9%
O=S(=O)(c1ccccc1)N1CCN(c2cccc(Cl)c2)CC1,/,3%,-3.3%,5%
Cc1ccc(C(=O)O)c(C(=O)Nc2nc3ccccc3s2)c1,/,0%,0.4%,-15%
CC(=O)c1ccc(N/C=C/C(=O)c2ccc(Br)cc2)cc1,/,?,-2.6%,-43%
Cn1nnc(NC(=S)NC(=O)Cc2ccccc2)n1,1,-4%,-1.1%,-1%
Cc1ccc(Nc2nnc(SCC(=O)NC(Cc3c[nH]c4ccccc34)C(=O)O)s2)cc1 (configuration not stated),-8,10%,2.4%,4%
CS(=O)(=O)c1ccc2nnn(OCC(=O)Nc3cccc(C#N)c3)c2c1,1,11%,5.8%,10%
Cn1c(SCc2cccc(F)c2)nnc1-c1cnccn1,-9,16%,-2.4%,-35%
Cc1ccccc1NC(=O)CSc1nnnn1C,5,3%,0.1%,0%
COc1ccc(CNC(=O)CC23CC4CC(CC(C4)C2)C3)cc1,/,-8%,-1.7%,-15%
COc1cccc(OCc2nnc(SCC(=O)OC3CCCCC3)n2C)c1,-10,9%,-4.7%,-2%
COc1ccc(OS(=O)(=O)c2c(C)noc2C)cc1,5,-6%,-0.5%,-13%
COc1ccc(/C=N/N2C(=O)c3ccccc3C2=O)cc1,-4,3%,-1.2%,-1%
c1ccc(C(Cc2nc(-c3ccccn3)no2)c2ccccc2)cc1,-11,8%,-1.2%,-18%
C=CCNC(=O)N1c2ccccc2Sc2ccccc21,/,29%,2.4%,6%
COC(=O)c1ccc(S(=O)(=O)NCCSc2nnc3c4ccccc4n(C)c3n2)cc1,-7,-3%,-1.0%,-1%
Cc1cc(OC(=O)c2ccc(S(=O)(=O)N(C)C)cc2)c([N+](=O)[O-])c(=O)[nH]1,-4,-6%,-4.0%,4%
Cc1nc(Sc2nnnn2-c2ccccc2)c(C#N)c(C)c1C,5,-6%,-2.2%,-1%
S=C(Nc1ccc(Cl)c(Cl)c1)N1CCOCC1,6,2%,?,-9%
COc1ccc(CN2C3CCC2CC(NC(=O)c2cc(OC)c(OC)c(OC)c2)C3)cc1 (configuration not stated),/,1%,-0.9%,-1%
Clc1ccc(CSc2ncccn2)cc1,2,10%,-4.4%,-26%
O=C(CCN1C(=O)C2CC=C(Cl)CC2C1=O)NCc1ccco1 (configuration not stated),-7,-9%,-1.1%,1%
O=C(COc1ccc(-n2cnnn2)cc1)Nc1ccc(F)c(F)c1F,/,-2%,-2.4%,/
C=C(C)c1cccc(C(C)(C)NC(=O)NCCCN2CCCC2=O)c1,1,-3%,2.3%,0%
CCC(C)Nc1nc2c(c(=O)[nH]c(=O)n2C)n1CCCc1ccccc1 (configuration not stated),/,-4%,3.1%,-14%
CN(c1ccccc1N(C)S(=O)(=O)c1ccccc1)S(=O)(=O)c1ccccc1,/,-3%,-0.2%,/
COc1ccccc1-c1noc(-c2ccccc2C(=O)Nc2ccccc2)n1,1,2%,-0.1%,-5%
CN(NC(=O)c1cccc(Cl)c1)c1nc(-c2ccccc2)nnc1C(F)(F)F,4,12%,0.3%,0%
COc1ccccc1NC(=O)CS(=O)(=O)c1cn(CC(=O)N2CCOCC2)c2ccccc12,2,-13%,-4.2%,-7%
CCN1CCN(Cc2ccc(NC(=O)c3ccc(C)c(NC(=O)c4cncc(-c5cccs5)c4)c3)cc2C(F)(F)F)CC1,/,-9%,-3.6%,/
Cc1ccccc1-n1nc2c(c1NC(=O)CCCl)CSC2,/,0%,1.9%,8%
CCC(NC(=O)c1cc(COc2c(F)cccc2F)on1)c1ccncc1 (configuration not stated),/,-11%,4.2%,0%
NC(=O)CSc1nnc(-c2cnccn2)n1-c1ccccc1,2,16%,-1.6%,-4%
O=C(CSc1nc2ccc(Cl)cc2[nH]1)NC1CCCc2ccccc21 (configuration not stated),-2,3%,0.3%,22%
O=C(Cn1cc([N+](=O)[O-])cn1)Nc1cccnc1,6,-7%,-0.8%,-2%
CC(C)Cc1nnc(NC(=O)c2ccncc2)s1,1,-19%,2.6%,-5%
COc1ccc(N2C(=O)/C(=C/c3cccnc3)NC2=S)cc1,2,-12%,-0.6%,-10%
CCOC(=O)CC1(NC(=O)c2cc(COc3cccc(OC)c3)on2)CCCCC1,/,5%,5.8%,7%
CCc1c(C)sc2nc(C(C)C)nc(SCC(=O)N3CCc4ccccc4C3)c12,-22,0%,0.4%,-10%
Cc1nc(NC(=O)COC(=O)c2ccc(S(=O)(=O)N3CCc4ccccc4C3)cc2)c(Cl)cc1Cl,7,-12%,-0.1%,-1%
Cc1ccc(C)n1-c1ccc(-n2cnnn2)cc1,4,-28%,-2.8%,-4%
CC(C)OCCCNC(=O)c1ccc(C2SCC(=O)N2Cc2ccco2)cc1 (configuration not stated),-14,-17%,1.8%,0%
Cc1cc(C)nc(SCC(=O)Nc2ncc(Cc3ccc(Cl)c(Cl)c3)s2)n1,9,-6%,1.4%,-16%
CCOC(=O)C1C(=O)C=C(c2ccc(C)cc2)CC1c1ccc([N+](=O)[O-])cc1 (configuration not stated),-9,-3%,-3.4%,-3%
Brc1ccc(OCc2ccccc2)c(CNCC2CCCO2)c1 (configuration not stated),-4,-5%,2.2%,-5%
Cc1nn(-c2cc(N3CCCC3)ccc2[N+](=O)[O-])c(=O)c2ccccc12,1,22%,6.3%,-1%
CCN(c1ccccc1)S(=O)(=O)c1ccc(NC(=O)c2ccco2)cc1,-10,-4%,0.2%,10%
COc1cccc(CC2(CO)CCCN(Cc3cn(C)c4ccccc34)C2)c1 (configuration not stated),-16,16%,2.3%,6%
CC(C)=CCCC(C)CCO (configuration not stated),5,2%,2.8%,/
CCOc1cc2[nH]c(=S)n(C3CC3)c(=O)c2cc1OCC,7,7%,0.4%,3%
Cc1cc(N2CCOCC2)nc2ccc(NC(=O)CCC(=O)N3CCCCC3)cc12,30,-2%,-0.7%,-32%
CSc1ccc(C=NNc2ccc(S(=O)(=O)Nc3ccccc3C(=O)O)cc2[N+](=O)[O-])cc1,/,8%,0.6%,/

# The list continues.
SMILES,GLA inh pH 4.5,Rango release inh,Rango complex inh,miR-21 reporter
CC(C)C(=O)Nc1nnc(SCC(=O)N2c3ccccc3CC2C)s1 (configuration not stated),1,-3%,1.4%,-10%
C#CCOCCOCCOCCNc1nc(N2CCN(C(=O)[C@H](CCC(=O)O)n3cc(CN)nn3)CC2)nc(N2CCN(C(=O)[C@H](CCC(=O)O)n3cc(CN)nn3)CC2)n1,/,-3%,-4.5%,/
O=C(COc1ccccc1Br)NC1CC1,/,-9%,-1.9%,-33%
CC(C)(C)OC(=O)NCCCC[C@H](NC(=O)c1nc[nH]c1C(=O)N1CCN(c2ccccc2)CC1)C(=O)OC(C)(C)C,1,-14%,?,23%
N#CCn1c(CN2CCCC2)nc2ccccc2c1=O,/,-8%,0.4%,-4%
Cc1cccc(C(CC(=O)O)NC(=O)C(F)(F)F)c1 (configuration not stated),10,4%,-0.5%,0%
Cc1nc(NCc2cccnc2)c2c3c(sc2n1)CCCC3,2,-13%,0.2%,-30%
COc1ccc(-c2cc(C(F)(F)F)n3nc(C(=O)NCc4ccco4)cc3n2)cc1,3,?,?,-9%
C=CCOc1ccccc1CNCc1ccc(F)cc1,7,19%,-2.8%,-3%
Cc1ccccc1-c1nc2ccc(Cl)cc2c(=O)n1O,/,5%,-4.6%,1%
CCn1c(CSCc2ccc(F)cc2)nnc1SCC(=O)NCc1ccccc1,5,4%,7.8%,2%
COc1ccc(C(=O)NCc2nnc(SCC(=O)N3CCc4ccccc43)n2CCc2ccccc2)cc1,-4,-12%,1.3%,-5%
C=CCNC(=O)CCCOc1cccc(C)c1,0,-3%,4.9%,-10%
O=C(NC(=S)Nc1ccc(N2CCOCC2)c(Cl)c1)c1cccs1,4,16%,9.7%,-45%
COCCCNC(=O)CSc1nc2ccccc2c(=O)n1CCC(=O)NCCc1ccc(OC)c(OC)c1,8,0%,-3.6%,-4%

# Quoted at random: two records from the list, in no set order.
SMILES,GLA inh pH 4.5,Rango release inh,Rango complex inh,miR-21 reporter
C=CCOc1ccccc1CNCc1ccc(F)cc1,7,19%,-2.8%,-3%
Cc1cccc(C(CC(=O)O)NC(=O)C(F)(F)F)c1 (configuration not stated),10,4%,-0.5%,0%

# Next records.
SMILES,GLA inh pH 4.5,Rango release inh,Rango complex inh,miR-21 reporter
O=C1N=C(N2CCCC2C(=O)O)S/C1=C\c1ccco1 (configuration not stated),2,-14%,?,0%
CCN(CC)c1ccc(C=C2C(=O)OC(C)(C(C)(C)C)OC2=O)cc1 (configuration not stated),11,?,?,-4%
COC(=O)c1ccc(CNC(=O)c2coc3ccccc3c2=O)cc1,0,-8%,2.6%,0%
C[C@H](NC(=O)N1CCn2c1nc1ccccc12)C(=O)NCc1ccc2c(c1)OCO2,/,-1%,2.1%,7%
CN(C)c1ccc(C(C#N)c2ccc(Cl)cc2)nn1 (configuration not stated),-3,1%,1.5%,-18%
COc1ccccc1N1CCN(C(c2cccs2)C(C)NC(=O)c2ccco2)CC1 (configuration not stated),0,20%,-6.0%,13%
